Compound activity as filed in PubChem BioAssay.
Cruzain inh Det: inhibitors of Trypanosoma cruzi cruzain with detergent; AID 1478; P25779; hit rate 0.43% among 200,000; purified cruzain, Z-FR-AMC fluorescence, 0.01% Triton; Potency, µM, inactives show max response, negative = inhibition, hits mostly inhibitors; active means well fitted curve in the direction sought with a large enough effect; inconclusive means small, poorly fitted or top-dose-only effect, or another doubt; inactive means no such curve, though single readings can be large; an effect the other way counts as inactive or inconclusive;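 further: plate controls were neutral wells for no effect and buffer without enzyme for full effect; nearly all actives have a fitted effect of over 40% in size; top concentration of the series not given in the record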
Target sequence (P25779 123-467 limits assumed): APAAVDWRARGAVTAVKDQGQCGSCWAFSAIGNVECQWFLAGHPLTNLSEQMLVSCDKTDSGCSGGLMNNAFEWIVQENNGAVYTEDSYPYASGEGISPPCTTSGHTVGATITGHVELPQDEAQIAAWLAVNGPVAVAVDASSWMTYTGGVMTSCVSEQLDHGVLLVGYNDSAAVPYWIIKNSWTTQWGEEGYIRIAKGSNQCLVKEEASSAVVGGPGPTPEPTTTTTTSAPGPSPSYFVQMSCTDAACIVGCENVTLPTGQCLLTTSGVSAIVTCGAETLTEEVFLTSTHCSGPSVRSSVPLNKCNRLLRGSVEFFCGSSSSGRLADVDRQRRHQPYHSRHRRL
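Steps: dispense cruzain (1.5 nM final) in acetate buffer pH 5.5 with DTT and 0.01% Triton X-100; pin-transfer compounds; incubate 15 min RT; add Z-FR-AMC (2 uM final); read fluorescence every 30 s, using the 60 s intensity change.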
Lassa entry inh: blocks Lassa virus binding to or entry into cells; Potency, µM (titrated, usually from 37.9 µM), inactives show at the highest dose activity change, negative = inhibition, actives largely listed as inhibitors; hit rate 1.2% among 300,000; Lassa virus pseudotype entry inhibition, cell reporter; control for the full effect not named in the record; AID 540256; active means well fitted inhibition curve with a large enough effect; inconclusive means small, poorly fitted or top-dose-only effect, or effect the other way; inactive means flat fitted curve, though single readings scatter; tested in HEK293 cells; further: on the % scale 0 is the no-effect control and ±100 the full control effect; nearly all actives have a fitted effect of over 50% in size; luciferase read-out
SARS PLP yeast: SARS-CoV PLP inhibition in yeast | Potency, µM (highest dose often 32.9 µM), for inactives: at the top dose activity, positive = growth rescue | AID 485353 | hit rate 0.19% among 330,000 | S. cerevisiae expressing SARS-CoV PLpro, growth rescue; control for the full effect not named in the record; further: 0% is about no effect; nearly all actives have a fitted effect of over 55% in size; growth read by luminescence after 48 h
NS1 inh: inhibitors of influenza NS1 protein function | S. cerevisiae slowed by influenza A NS1, growth recovery by OD600 | hit rate 0.4% among 270,000 | AID 2326 | Potency, µM (highest dose often 46.1 µM), inactives show top-dose activity, positive = more growth; further: actives are rising curves; nearly all actives have a fitted effect of over 50% in size
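Growth recovery, yeast-based: influenza A NS1 expressed in S. cerevisiae causes slow growth, and suppressors are detected by OD600. The parent strain without NS1 is used as positive control.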
Marburg entry inh: Marburg virus entry inhibition. Potency, µM (top dose mostly 37.8 µM), for the others: at the highest dose activity change, negative = inhibition, hits mostly inhibitors. AID 540276. Marburg virus pseudotyped entry inhibition, cell reporter; control for the full effect not named in the record; about a third of the inactives were read at about 46 µM. hit rate 1.8% among 300,000; active = well fitted inhibition curve with a large enough effect; inconclusive = small, poorly fitted or top-dose-only effect, or effect the other way; inactive = flat fitted curve, though single readings scatter; tested in HEK293 cells; about a fifth of its hits are not listed in these tables; further: on the % scale 0 is the no-effect control and ±100 the full control effect; luciferase read-out
Cruzain inh noDet: cruzain (T. cruzi) inhibition without detergent. purified cruzain, Z-FR-AMC fluorescence, no detergent. Potency, µM, without a hit: max response, negative = inhibition, most hits filed as inhibitors. P25779. hit rate 2.3% among 200,000; active means well fitted curve in the direction sought with a large enough effect; inconclusive means small, poorly fitted or top-dose-only effect, or another doubt; inactive means no such curve, though single readings can be large; an effect the other way counts as inactive or inconclusive;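 further: plate controls were enzyme without inhibitor for no effect and buffer without enzyme for full effect; nearly all actives have a fitted effect of over 40% in size; top concentration of the series not given in the record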
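Detergent-free condition (0.00005% Triton X-100) in acetate buffer pH 5.5 with DTT. 1.5 nM enzyme and compound were pre-mixed 15 min, then 2 uM Z-FR-AMC substrate added; reaction progress from fluorescence change between first and third reads (60 s).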
RE007 growth inh: less growth of the S. pombe RE007 Vpr strain; S. pombe RE007 Vpr strain, BacTiter-Glo ATP luminescence, 24 h; control for the full effect not named in the record; Potency, µM (titrated, usually from 92.2 µM), for inactives: at the top dose activity change, negative = less growth; hit rate 0.21% among 360,000; AID 651644; active = well fitted falling curve with a large enough effect; inconclusive = small, poorly fitted or top-dose-only effect; inactive = no such curve, though single readings can be large or run the other way;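 further: on the % scale 0 is the no-effect control and ±100 the full control effect; nearly all actives have a fitted effect of over 50% in size; the assay follows cell death caused by Vpr and the record does not say whether a fall means rescue or toxicity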
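Fission yeast RE007 carrying one integrated HIV-1 vpr copy, seeded at OD 0.01 in PMG+AL medium with 23 nL pinned compound. Grown 24 h at 30 degrees; viability read by BacTiter-Glo luminescence after 5 min.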
StopGo reporter: lowers the luciferase signal of an FMDV 2A StopGo reporter | AID 1159524 | human cells with a luciferase reporter of 2A StopGo recoding; control for the full effect not named in the record | Potency, µM (top dose mostly 57.9 µM), inactives show at the highest dose signal change, negative = less light | hit rate 1.2% among 410,000; active = well fitted falling curve with a large enough effect; inconclusive = small, poorly fitted or top-dose-only effect; inactive = no such curve, though single readings can be large or run the other way; tested in HEK293T cells; further: on the % scale 0 is the no-effect control and ±100 the full control effect; nearly all actives have a fitted effect of over 45% in size; luciferase light after 4 h
Numbers without * were called inactive; ? = inconclusive; / = not tested or not shown; [ ] = another dose, or the depositor's remark. Unless noted, the call rests on the fitted dose curve; in most records, active means well fitted rising curve with a large enough effect; inconclusive means small, poorly fitted or top-dose-only effect; inactive means no such curve, though single readings can be large or run the other way. Potency means the concentration at half of the fitted maximal effect.

structure	Cruzain inh Det	Lassa entry inh	SARS PLP yeast	NS1 inh	Marburg entry inh	Cruzain inh noDet	RE007 growth inh	StopGo reporter
COC(=O)COc1ccc(S(=O)(=O)N2CCN(c3ccc(OC)cc3)CC2)cc1	/	0%	6%	/	?	/	-7%	-13%
COc1cc(C(=O)N/N=C/c2ccc(OC)c(CN3CCN(c4ccc(F)cc4)CC3)c2)ccc1O	/	-23%	3%	/	?	/	-8%	?
CCCCCCN1CC(O)=C(c2ccccc2)C1=N	-3.1%	-1%	0%	1%	-2%	9%	4%	4%
COc1cccc(N/C=C(\C#N)c2ccc(OCCCF)cc2)c1	-6.8%	2%	7%	-8%	4%[46.1 µM]	-5%	-6%	9%
Cc1ccc(C)c(S(=O)(=O)Nc2ccccc2C(=O)Nc2ccccc2N2CCOCC2)c1	5.7%	-10%	-3%	23%	-18%[46.1 µM]	?	-6%	-13%
COc1ccccc1NC(=S)NNC(=O)c1cc(C)nn1C	1.5%	2%	3%	-2%	?	1%	-2%	-1%
CCNC(=S)N=Nc1c(O)[nH]c2ccc(C(C)C)cc12	-8.2%	3.5µM*	-13%	4%	-23%	-1%	2%	-24%
CCc1ccc(NC(=S)N(Cc2ccc(Cl)cc2)Cc2ccc(C(=O)O)cc2)cc1	/	2%	1%	/	24%[46.1 µM]	/	12%	-26%
COc1cc(-c2noc(CN3CCN(c4cccc(Cl)c4)CC3)n2)cc(OC)c1OC	1.0%	0%[46.1 µM]	/	/	11%[46.1 µM]	-8%	/	-2%
O=S(=O)(c1ccc(F)cc1)N1CCN(c2nc(-c3ccc(F)cc3)cs2)CC1	-0.6%	?	1%	17%	?	10µM*	-4%	/
CCC(=O)NCc1csc(-c2cccs2)n1	/	?	-1%	-2%	?	/	13%	45%[activator]
COc1ccc(Cn2nnnc2C(c2cccs2)N2CCN(c3ccccc3)CC2)cc1 (stereo not given)	0.1%	?	-4%	0%	?	9%	1%	?
COc1ccc(-c2cc(C(F)(F)F)nc(SCC(=O)NCc3cccs3)n2)cc1	-0.8%	2%	-6%	15%	-11%	?	3%	0%
COc1cc(S(=O)(=O)N2CCCCC2)ccc1NC(=O)/C=C/c1ccccc1	1.3%	0%	-3%	14%	-13%	-12%	13%	1%
O=C(CC(=O)N/N=C\c1ccccc1[N+](=O)[O-])NCCc1ccccc1	/	/	0%	18%	/	/	-3%	-18%
Cc1cccc(NC(=O)c2nnn(CC(=O)Nc3ccc(C(C)C)cc3)c2N)c1C	-1.3%	21%[46.1 µM]	/	/	0%[46.1 µM]	20µM*	/	-21%
Cc1ccc2nc(N(Cc3cccnc3)C(=O)CCS(=O)(=O)c3ccccc3)sc2c1	-2.0%	11%[46.1 µM]	/	/	/	-14%	/	-4%
CCS(=O)(=O)c1ncc(Cl)c(C(=O)N(Cc2ccccc2)c2ccc(OC)cc2)n1	-8.2%	?	/	/	?	3%	/	11µM*
CCCCCCNCC(=O)N1CCC(Cc2ccccc2)CC1	/	-21%	-4%	-13%	0%[46.1 µM]	/	-4%	-28%
Cc1cc(=O)oc2c3c(ccc12)OCN(Cc1ccccc1Cl)C3	-19%	12%[46.1 µM]	/	/	/	?	/	-1%
O=C(CSc1nccn1Cc1ccc(F)cc1)Nc1ccc(F)cc1F	/	-11%	1%	-29%	-23%	/	-2%	?
Cc1cccn2c(NC(=O)c3cccs3)c(-c3ccccc3)nc12	-3.5%	2%	-12%	-4%	-4%	-3%	-11%	-19%
COC(=O)C1CCN(C(=O)CC(NC(=O)C(F)(F)F)c2cccs2)CC1 (stereo not given)	/	/	1%	3%	/	/	0%	-6%
O=C(CN1C(=O)S/C(=C\C=C\c2ccccc2)C1=O)Nc1ccc(C(=O)O)cc1	/	/	-1%	0%	/	/	-7%	13%
O=C(Cn1c(-c2cscn2)nc2ccccc21)Nc1cc(F)ccc1F	-0.1%	?	1%	3%	-18%	1%	-5%	43%[activator]
O=C(O)CSCC(=O)Nc1ccccc1SCCS(=O)(=O)c1ccc(Cl)cc1	/	4%[46.1 µM]	0%	2%	16%[46.1 µM]	/	0%	-11%
O=C(CSc1nncc2ccccc12)Nc1ccccc1	/	9%	-3%	-11%	9%[46.1 µM]	/	3%	-5%
COC(=O)c1cccc(NC(=O)CCc2ccccc2)c1	-3.1%	?	15%	-6%	?	10%	-1%	17%
O=C(NCc1ccco1)c1cc(Cl)nc(Cl)c1	/	?	1%	?	?	/	-6%	-22%
CC(C)CC(=O)NCC(c1ccc2c(c1)OCO2)N1CCN(c2ccccc2F)CC1 (stereo not given)	-0.4%	1%[46.1 µM]	/	/	/	-2%	/	-19%
COc1ccc(OC)c(S(=O)(=O)NC2CCCCNC2=O)c1 (stereo not given)	/	9%[46.1 µM]	0%	4%	-15%[46.1 µM]	/	13%	9%
Oc1ccc2c(c1)c1ccccc1c1ncccc21	/	5%	/	/	6%	/	0%	-24%
COc1ccc([N+](=O)[O-])cc1NC(=O)CSc1nccc(C)n1	-6.4%	5%	9%	?	8%	-13%	-9%	-11%
COc1cc(OC)cc(C(=O)N2CCN(C(=O)c3cccnc3)CC2)c1	/	/	7%	-4%	/	/	3%	-1%
COc1ccc2c(c1)-c1ccccc1S(=O)(=O)N2C	-1.9%	-28%	3%	8%	3%	-11%	19%	-21%
CCCOc1ccc(CN(C(=O)c2cc(=O)c3ccc(C)cc3o2)C2CCS(=O)(=O)C2)cc1 (stereo not given)	-5.7%	?	/	/	?	?	/	-22%
CCOC(=O)CNC(=S)N1CC2C[C@@H](C1)Cn1c2cccc1=O	/	/	2%	5%	/	/	-14%	-10%
O=[N+]([O-])c1nn(-c2ccc(Cl)cc2)n(O)c1=NCc1ccncc1	/	/	1%	-10%	/	/	?	?
Cc1cccc2c(=O)cc(CSc3ccccc3NC(=O)c3cccc(Br)c3)[nH]c12	-3.9%	-1%[46.1 µM]	/	/	/	-1%	/	-15%
CCOc1cc(N2CCOCC2)c(OCC)cc1NC(=O)COC(=O)[C@H](Cc1c[nH]c2ccccc12)NC(C)=O	-1.3%	-8%	0%	-9%	9%	?	10%	0%
COc1ccc(Nc2ncnc3c2c(-c2ccccc2)cn3-c2ccc(C)c(Cl)c2)cc1OC	0.6%	11%[46.1 µM]	/	/	/	-1%	/	2%
CC(C(=O)O)n1nnc2ccccc21 (stereo not given)	/	-3%	0%	-2%	18%[46.1 µM]	/	-8%	-7%
O=S(=O)(NCc1ccc2c(c1)OCO2)c1cccc(F)c1	/	21%	3%	1%	0%	/	-3%	27%
COC(=O)N/N=C/c1cn(Cc2ccccc2Cl)c2ccccc12	-8.0%	-29%	13%	?	-26%	-2%	11%	0%
CCOC(=O)c1nn(-c2ccc(F)cc2)c(=O)cc1OCC(=O)Nc1cccc(C)c1	/	5%	2%	/	8%[46.1 µM]	/	0%	-20%
CCc1ccc(OCC(=O)Nc2ccc(-c3nc4ccccc4o3)c(O)c2)cc1	-21%	-25%	2%	10%	?	?	9%	-11%
CCN(CC)C(=O)Cn1c(=O)n(CCCCCC(=O)NCc2ccc3c(c2)OCO3)c(=O)c2sccc21	-1.1%	5%[46.1 µM]	/	/	16%[46.1 µM]	4%	/	-3%
CCC(c1nnnn1Cc1ccco1)N(Cc1cc2cc(C)cc(C)c2[nH]c1=O)CC1CCCO1 (stereo not given)	-5.9%	-1%	3%	2%	?	27%	-17%	0%
COc1cc2cc(CN(Cc3cccs3)C(=S)Nc3ccccc3)c(=O)[nH]c2cc1OC	-7.8%	?	7%	27%	?	?	11%	0%
Cc1cc(C(=O)N2CCc3ccccc3C2)on1	/	/	-2%	-19%	/	/	-2%	-3%
CCCc1nc2ccccc2[nH]1	3.9%	-1%	-4%	-4%	0%	7%	16%	4%
CN1CCC(=O)N([C@H](CSc2ccc(Br)cc2)c2ccccc2)CC1	/	/	-5%	13%	/	/	-1%	26%
CC(Sc1nnc(N)s1)C(=O)NNC(=O)c1cccc(Cl)c1 (stereo not given)	/	0%	1%	/	6%	/	8%	14%
C=CCNC(=S)N(Cc1ccccc1)Cc1ccccc1	/	?	2%	-4%	?	/	-14%	-14%
Cc1ccccc1Nc1nc(N)nc(-c2oc3ccccc3c2C)n1	/	-4%	-2%	8%	?	/	-12%	45%[activator]
CC(=O)C1=C(C)Nc2ncnn2C1c1ccccc1Cl (stereo not given)	-4.0%	7%	1%	-1%	1%	3%	-7%	/
N#Cc1ccccc1OCC(=O)Nc1cc(S(=O)(=O)N2CCCCC2)ccc1N1CCOCC1	/	-18%	/	/	?	/	-5%	-5%
O=C(CC1C(=O)NCCN1Cc1cccc(F)c1)NC1CCC1 (stereo not given)	/	18%[46.1 µM]	0%	-2%	-23%[46.1 µM]	/	-15%	-6%
CN(C)S(=O)(=O)c1ccc(NC(=O)/C=C/c2ccccc2Cl)cc1	-13%	-20%	9%	11%	?	-27%	-17%	14%
NC1CCCCC1N=Cc1c(O)n(Cc2ccc(F)cc2)c(=O)[nH]c1=O (stereo not given)	-3.7%	1%	?	?	-2%	-2%	0%	-27%

Remaining list, next part:
structure	Cruzain inh Det	Lassa entry inh	SARS PLP yeast	NS1 inh	Marburg entry inh	Cruzain inh noDet	RE007 growth inh	StopGo reporter
CCOc1ccc(S(=O)(=O)N2CCN=C2Cc2ccccc2)cc1C	/	/	2%	-5%	/	/	-2%	-4%
Clc1ccccc1Cc1noc(CN2CCCCC2CCc2ccccn2)n1 (stereo not given)	/	-6%[46.1 µM]	0%	-5%	?	/	-14%	-16%
CC(=O)Nc1cccc(NC(=O)c2ccco2)c1	0.3%	7%	0%	0%	-1%	-2%	-8%[3.69 µM]	10%
COc1ccc2cc(S(=O)(=O)N3CCOCC3)ccc2c1	3.9%	-15%	-11%	2%	8%	0%	-2%	-24%
Nc1nnc(SCC(=O)OCC(=O)NC23CC4CC(CC(C4)C2)C3)s1	/	0%	-2%	/	?	/	11%	-6%

Random draw from the library; overall some 4.6% were active at least once.
